D2 agonist: Beta-Arrestin HTS for Positive Allosteric Modulators of the Human D2 Dopamine Receptor: Agonists; D(2) dopamine receptor (Homo sapiens), P14416; DiscoveRx PathHunter D2 beta-arrestin, luminescence, 90 min; 100% = 57 uM dopamine signal; activation, % (concentration not given with the values); 0.084% of 360,000 active; AID 624465, 2012; in the data active = activation above about 40%; inconclusive = about 15% to 40%; inactive = below about 15%; further: compound concentration not given in the record; the text of the record calls up to 30% inactive
Target sequence (P14416 whole entry, looked up): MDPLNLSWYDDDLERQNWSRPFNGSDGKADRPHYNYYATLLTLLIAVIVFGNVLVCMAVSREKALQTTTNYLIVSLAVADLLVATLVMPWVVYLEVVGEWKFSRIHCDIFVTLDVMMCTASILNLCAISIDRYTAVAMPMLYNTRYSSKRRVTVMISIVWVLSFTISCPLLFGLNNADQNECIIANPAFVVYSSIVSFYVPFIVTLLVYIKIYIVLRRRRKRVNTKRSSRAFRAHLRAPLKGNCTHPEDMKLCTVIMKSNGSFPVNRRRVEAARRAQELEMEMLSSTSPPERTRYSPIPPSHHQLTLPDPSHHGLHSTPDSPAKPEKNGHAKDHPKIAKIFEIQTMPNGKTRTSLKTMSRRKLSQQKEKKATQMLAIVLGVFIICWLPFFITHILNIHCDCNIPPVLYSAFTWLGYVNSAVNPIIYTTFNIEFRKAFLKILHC
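Agonist mode: compounds alone added to overnight-plated D2 PathHunter cells for 90 min at 37 C, with 57 uM final dopamine (EC100) defining full response. Beta-arrestin recruitment detected by chemiluminescent reagent, read after 1 h at ambient temperature.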
gsp ag: qHTS for Agonist of gsp, the Etiologic Mutation Responsible for Fibrous Dysplasia/McCune-Albright Syndrome: qHTS; gsp mutant cells, cAMP HTRF, 30 min; control for the full effect not named in the record; Potency, µM (doses to about 76.9 µM), without a hit: at the top dose activation (cAMP increase), usual class: activators; 0.13% of 340,000 active; AID 624287, 2012; active = well fitted activation curve with a large enough effect; inconclusive = small, poorly fitted or top-dose-only effect, or another doubt; inactive = no such curve, though single readings can be large or run the other way; cell line not stated here;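 further: phosphodiesterase inhibitor Ro 20-1724 added with compounds to block cAMP breakdown; potency means the concentration at half of the fitted maximal effect; nearly all actives have a fitted effect of over 60% in size; about a fifth of the inactives were tested at one dose only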
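Cells in DMEM/10% FBS with G418 were pretreated with compounds in DMSO plus […] (300 uM stock) for 30 min at 37C. cAMP was measured by HTRF (cAMP-d2 plus anti-cAMP antibody-K) after 30 min at room temperature.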
PINK1 modulator: A Quantitative High throughput Screen to Identify Chemical Modulators of PINK1 Expression | PINK1 immunofluorescence, high-content cytometry, 24 h | Potency, µM (doses to about 76.6 µM), for inactives: top-dose activation (PINK1 increase), hits mostly activators | 0.2% of 410,000 active | AID 624263, 2012; active = well fitted activation curve with a large enough effect; inconclusive = small, poorly fitted or top-dose-only effect; inactive = flat fitted curve, though single readings scatter; cell line not stated here;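 further: potency means the concentration at half of the fitted maximal effect; % of control where 0% means no effect; nearly all actives have a fitted effect of over 65% in size; a mitochondrial uncoupler was the plate control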
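PINK1 protein, normally rapidly degraded, was detected by immunofluorescence after 24 hour compound treatment of a stable cell line. Titration data (5 concentrations) came from laser-scanning cytometry, with CCCP-treated wells as controls.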
gsp antagonist: qHTS for Antagonists of gsp, the Etiologic Mutation Responsible for Fibrous Dysplasia/McCune-Albright Syndrome: qHTS. Potency, µM (doses to about 76.9 µM), for the others: at the highest dose activity change, negative = inhibition, usual class: inhibitors. gsp-mutant cells, cAMP HTRF, 30 min; control for the full effect not named in the record. 0.4% of 340,000 active. AID 624288, 2012; active = falling curve of any shape with a large fitted effect; inconclusive = falling curve, mostly with a smaller effect; inactive = flat or rising curve; cell line not stated here;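 further: intracellular cAMP measured with PDE inhibitor Ro 20-1724 present during compound exposure; potency means the concentration at half of the fitted maximal effect; on the % scale 0 is the no-effect control and ±100 the full control effect; nearly all actives have a fitted effect of over 65% in size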
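HTRF cAMP read-out (cAMP-d2 plus anti-cAMP antibody-K in lysis buffer, 30 min RT). Before lysis, cells are exposed to compounds with […] for 30 min at 37C in DPBS containing Ca/Mg, BSA and Tween 20.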
Sfp PPTase inh: qHTS Assay for Inhibitors of Bacillus subtilis Sfp phosphopantetheinyl transferase (PPTase); 3.5% of 310,000 active; Biochemical Sfp PPTase activity, qHTS; Potency, µM, inactives show max response, negative = inhibition, actives largely listed as inhibitors; 4'-phosphopantetheinyl transferase ffp (Bacillus subtilis), Q9F4F7; active means well fitted inhibition curve with a large enough effect; inconclusive means small, poorly fitted or top-dose-only effect, or another doubt; inactive means no such curve, though single readings can be large or run the other way;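 further: the enzyme is Sfp with the accession as filed and its product quenches rhodamine fluorescence; potency means the concentration at half of the fitted maximal effect; 0% = enzyme reaction without inhibitor and -100% = no enzyme wells; top concentration of the series not given in the record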
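Buffer: 50 mM Hepes-Na pH 7.6, 10 mM MgCl2, 0.01% Nonidet P-40, 0.01% BSA. Enzyme 15 nM, pre-exposed to compound 15 min; substrates then added and fluorescence change tracked over 30 min.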
ClpP mod: qHTS Assay for Activators of ClpP; ATP-dependent Clp protease proteolytic subunit (Bacillus subtilis (strain 168)), P80244; purified B. subtilis ClpP, FRET peptide cleavage, 20 min; Potency, µM (titrated, usually from 57.5 µM), for inactives: at the highest dose activity change, negative = active; 1.9% of 340,000 active; active = well fitted falling curve with a large enough effect; inconclusive = small, poorly fitted or top-dose-only effect; inactive = no such curve, though single readings can be large or run the other way; further: potency means the concentration at half of the fitted maximal effect; the source files actives as falling curves though it sought activators and does not explain the sign; nearly all actives have a fitted effect of over 65% in size; many hits overshoot -100%
Target sequence (P80244 whole entry, looked up): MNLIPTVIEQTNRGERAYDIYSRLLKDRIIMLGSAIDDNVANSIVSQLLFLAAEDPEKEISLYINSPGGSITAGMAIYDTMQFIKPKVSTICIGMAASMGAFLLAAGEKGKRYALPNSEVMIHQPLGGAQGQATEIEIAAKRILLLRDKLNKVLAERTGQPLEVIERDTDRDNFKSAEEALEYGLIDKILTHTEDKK
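ClpP 10 microg/mL final, pH 8 Tris/KCl buffer with BSA, glycerol, Tween-20; compound pinned in; FRET-FV substrate; RT 20 min; Ex320/Em430; ΔFRET vs ADEP 5.8 microM, DMSO, no enzyme.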
Menin MLL FP FL: qHTS Assay for Inhibitors Targeting the Menin-MLL Interaction in MLL Related Leukemias: Competition With Fluorescein Labeled MLL-derived Peptide | Fluorescence polarization, fluorescein-MLL peptide displacement from menin | FP activity change, % at 61.4 µM | 290,000 tested, under 10 active | AID 1766, 2009; inconclusive = falling polarisation curve, or a change in total fluorescence; inactive = total fluorescence flat and polarisation flat or rising; no compound was filed as active; the % refers to the polarisation; negative = inhibition;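 further: % of control where 0% means no effect; inhibitors lower the polarisation; unlabelled MLL peptide was the positive control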
Active calls of the source: *; ? = inconclusive; . = no result given; [ ] = remark or other dose. Not a hit list, and some 5.1% of all compounds hit somewhere here.

Compound	D2 agonist	gsp ag	PINK1 modulator	gsp antagonist	Sfp PPTase inh	ClpP mod	Menin MLL FP FL
O=C(Nc1cccc(S(=O)(=O)N2CCOCC2)c1)C1CCN(S(=O)(=O)c2ccccc2)CC1	-2.1	8.1%	1.0%	-15.9%	.	0.1%	.
O=C(Nc1nc2ccsc2c(=O)s1)c1ccc(Cl)cc1	-2.3	?	-0.5%	2.3%	7.8%	-0.3%	-0.2
CN(C)CCCN(Cc1ccccc1)C(=S)Nc1ccc(F)c(Cl)c1	-9.3	-14.5%[15.4 µM]	-1.1%	-7.3%	-5.4%	.	1.3
Brc1ccc(CNc2ccc3ncccc3c2)cc1	?	-2.4%	0.4%	-15.2%	-10.8%	4.9%	0.6
CCOC(=O)N1CCC(c2nc(C)sc2C(=O)O)CC1	-0.4	11.9%	7.2%[38.3 µM]	6.8%	8.5%	-0.9%	2.7
COc1ccc(S(=O)(=O)N2CCOCC2)cc1C(=O)Nc1ccon1	1.0	?	1.2%	2.3%	9.0%	-5.4%	3.1
COC(=O)c1ccc(CNC(=O)COC(=O)CCN2C(=O)C3CC=CCC3C2=O)cc1 (configuration not stated)	-3.3	-22.0%[15.4 µM]	-2.5%	1.9%	.	.	.
CC(=O)c1cccc(CN2CCCC(C(=O)Nc3cccc(-n4cccn4)c3)C2)c1 (configuration not stated)	-6.5	16.7%[15.4 µM]	-0.4%	-1.3%	16.2%	0.9%	.
COCC(=O)n1nc(-c2ccc(Cl)cc2)nc1NCc1ccc(F)cc1	-2.0	0.0%	0.8%	-10.1%	-0.2%	7.9%	5.6
CCN1C(=O)/C(=C/N2CC(C)CC(C)C2)SC1=S (configuration not stated)	0.2	-58.1%[inhibitor]	0.3%	-4.7%	11.0%	0.4%	-2.7
Cc1ccc(C(C(=O)NC2CCCCC2)N(CCC(C)C)C(=O)CNC(=O)c2ccco2)o1 (configuration not stated)	-3.1	6.5%	-0.4%	-4.5%	17.2%	1.6%	4.8
O=C(c1ccc(-c2cccc(C(F)(F)F)c2)o1)N1CCN(c2ccccc2)CC1	0.5	5.3%	12.9%	-3.7%	.	-4.1%	.
CN(C)S(=O)(=O)N1CCC(Oc2ccc(C(=O)N3CCCCCCC3)cc2)CC1	0.9	6.5%	-4.0%	-5.4%	10.5%	-17.3%	.
Cc1cc(NC(=O)CN2CCCC(C)C2)no1 (configuration not stated)	-2.2	-2.3%[15.4 µM]	-1.6%	12.0%	-13.4%	.	-0.4
C[C@H]1CCCCO[C@@H](CN(C)S(=O)(=O)c2ccc(F)cc2)[C@@H](C)CN([C@@H](C)CO)C(=O)c2cc(NC(=O)Nc3ccc4c(c3)OCO4)ccc2O1	-3.5	-107.2%	5.1%	.	.	-22.9%	.
Cn1c(=O)c2c(nc(SCCN3CCOCC3)n2Cc2ccc(Cl)cc2)n(C)c1=O	1.8	?	0.3%	0.2%	.	0.6%	.
COC(=O)[C@H](CCSC)NC(=O)NC1CC1	-6.2	-2.3%	0.2%	-4.3%	14.0%	-0.8%	-4.6
CSc1ncccc1-c1nc2ccccc2[nH]1	0.9	-16.2%	-0.2%	5.5%	4.4%	-19.3%	-3.9
Cc1cccc2cc(CN(Cc3cccs3)C(=S)NCC3CCCO3)c(=O)[nH]c12 (configuration not stated)	-2.0	-6.0%	-0.1%	-17.4%	-10.7%	-5.8%	-0.2
Cc1cccc(CNC(=O)Nc2nnc([C@H]3C[C@H](O)[C@@H](CO)O3)s2)c1	-3.8	.	0.1%	.	.	0.7%	.
O=[N+]([O-])c1cc([N+](=O)[O-])c(Oc2cc(F)cc(F)c2)cc1NN1CCCCC1	-1.4	?	10.7%	-7.9%	.	3.2%	.
O=C(Oc1cccnc1)c1cc(S(=O)(=O)N2CCCCC2)ccc1Cl	-1.8	?	-0.8%	1.8%	14.6%	0.9%	2.3
CCN(CC)S(=O)(=O)N1CCC(C(=O)NCCC2=CCCCC2)CC1	-1.9	-10.8%	-1.6%	3.3%	9.0%	1.2%	-0.6
COc1ccc(CN2CCN(C(=O)c3cccnc3)CC2)cc1Br	0.6	-39.5%[inhibitor]	1.5%[38.3 µM]	-13.0%	79.4µM*	-0.1%	-1.5
Cc1noc(C)c1NC(=O)Nc1ccc2c(c1)C(=O)N([C@H](C)CO)C[C@H](C)[C@H](CN(C)C(=O)NC1CCCCC1)OCCCC[C@@H](C)O2	-1.9	-61.6%[inhibitor]	1.2%	.	.	0.2%	.
COC(=O)C1=NN(c2cccc(C)c2)C2C(=O)N(c3ccccc3OC)C(=O)C12 (configuration not stated)	2.9	-0.7%	2.9%	-10.8%	14.5%	?	-0.5
Nc1ncnc(Nc2ccccn2)c1[N+](=O)[O-]	-2.0	4.1%[15.4 µM]	0.3%	.	-2.8%	.	-0.2
CC(C)c1ccc2c(c1)C(c1ccc(N3CCOCC3)cc1)=NNC(c1cccs1)=N2	-2.1	-45.9%[inhibitor]	1.2%	-9.9%	13.0%	1.2%	-0.7
COc1ccccc1N1CCN(C(=O)c2cc(-c3ccco3)on2)CC1	-30.3	?	0.5%	-4.5%	1.5%	0.8%	7.3
O=C(Nc1ccc(F)c([N+](=O)[O-])c1)C1CC(=O)N(Cc2ccccc2)C1 (configuration not stated)	-2.9	9.5%	-1.5%	-10.4%	28.6%	.	-3.3
O=Cc1ccc(-c2nc3ccccc3s2)o1	3.7	-15.0%	1.6%	2.6%	2.0%	.	14.4
CC1=C(C)CC(C(=O)NC2CCCC2)C(C(=O)O)C1 (configuration not stated)	-1.5	26.6%	1.6%	-8.2%	8.2%	0.8%	-1.0
NS(=O)(=O)c1ccc(NNC(=O)c2ccccc2C(=O)O)cc1	-6.0	0.5%	8.2%	2.8%	?	1.9%	3.7
Cc1nc(/N=C\N(C)C)sc1C(=O)Nc1ccccc1	-2.5	-38.2%[inhibitor]	-3.2%[38.3 µM]	2.1%	2.3%	-3.3%	2.4
O=C(NCc1ccccc1C(F)(F)F)c1cccc2c1C(=O)c1ccc(N3CCOCC3)cc1S2(=O)=O	0.7	?	?	-6.4%	.	0.5%	.
COc1cccc(CC2(CO)CCCN(C/C=C/c3ccccc3OC)C2)c1 (configuration not stated)	-4.7	-5.2%	4.8%	7.0%	4.3%	-3.4%	?
O=[N+]([O-])c1cccc(NC(=S)N2CCc3ccccc3C2)c1	2.1	?	-0.3%	-23.1%	4.3%	1.5%	1.7
Cc1ccccc1NC(=O)Cn1cc(C(=O)C2CC2)c2ccccc21	0.3	2.2%	9.0%	5.9%	16.6%	.	2.5
CCn1nnnc1SCC(=O)Nc1ccc(F)cc1	-0.1	?	-2.0%	5.9%	10.4%	.	4.0
O=S1(=O)CCC(NS(=O)(=O)/C=C/c2ccccc2)C1 (configuration not stated)	-2.1	-34.2%[inhibitor]	2.7%[38.3 µM]	-0.8%	23.7%	0.9%	5.1
CN(C)/C=N/C(=S)Nc1ccc(Cl)c(Cl)c1	-5.4	-0.5%[15.4 µM]	-1.1%	-14.9%	-2.5%	.	4.2
Cc1ccc(-n2c(SCC(=O)Nc3cccc(C)c3)nc3c(oc4ccccc43)c2=O)cc1	.	.	1.5%	.	5.1%	40.2%	6.1
Cc1nc(N2CCOCC2)nc(N2CCN(c3ccccc3)CC2)c1[N+](=O)[O-]	2.8	-13.1%	-2.3%	-2.2%	10.0%	-4.7%	2.4
Cc1oc(C(=O)O)cc1COc1cccc2cccnc12	1.1	?	-0.6%	11.1%	-7.0%	-8.3%	1.8
O=C(COc1cccc2c1CCN(Cc1ccc(Br)cc1)C2=O)NCc1ccco1	0.7	10.8%	3.4%	?	-13.5%	-1.0%	1.7
Cc1ccc2oc(=O)c3cnn(CC(=O)NCCN(C)C)c3c2c1	-2.1	-63.6%[inhibitor]	-1.4%	3.3%	10.4%	0.9%	3.1
COc1ccccc1NC(=O)CSc1nc(=O)n(CCN(C)C)c2c1CCCC2	-2.1	6.5%	0.2%	13.7%	.	-3.2%	.
CCCCn1c(N)c(N(CCOC)C(=O)c2cccc(N3C(=O)c4ccccc4C3=O)c2)c(=O)[nH]c1=O	0.8	-9.9%	0.1%	-14.8%	.	-2.7%	.
CC(C)C(O)(C#CCN1CCCCC1)C(C)C	-5.9	-19.8%	-0.5%	-13.6%	20.7%	-1.0%	4.4
CS(=O)(=O)N1CCC2(CC1)CN(C(=O)Nc1ccccc1)C2	.	.	-0.2%	.	13.8%	.	-3.2
Cc1ccccc1C(=O)Nc1ccc(C(=O)NNC(=O)CCCOc2ccc(Cl)cc2Cl)cc1	1.6	18.2%	23.0%[38.3 µM]	13.9%	7.1%	-6.0%	-1.5
O=Nc1c(O)n(Cc2cccc(Cl)c2)c2ccccc12	2.6	-23.4%	-0.7%	?	6.4%	-0.8%	1.5
COCCCNC(=O)c1cc(-c2cccnc2)nc2ccc(S(=O)(=O)N3CCCCCC3)cc12	2.5	21.4%	-0.6%	1.2%	1.9%	-4.8%	.
CCC(=O)N1CCc2cc(S(=O)(=O)CCC(=O)Nc3ccc(CC)cc3)ccc21	0.0	3.7%	5.2%	-8.0%	22.1%	-2.4%	2.8
CN1C(=O)[C@H]2[C@@H](c3ccc(F)cc3)N3C(=O)c4ccccc4NC(=O)[C@@]3(C)[C@H]2C1=O	-4.4	?	1.0%	5.5%	17.1%	0.3%	0.2
CCN(CC)S(=O)(=O)c1ccc2oc(C(=O)NC(C)C)c(C)c2c1	1.0	-2.0%	0.0%	-17.4%	-12.4%	-1.5%	3.3
COc1ccc(S(=O)(=O)N2CCCCCC2)cc1NC(=O)Cc1cc(OC)c(OC)c(OC)c1	-1.4	8.7%	3.0%	-29.4%	14.6%	0.6%	-1.5
